Screens (PubChem)
GIRK2 activ: activators of human GIRK2 potassium channels | calls only for hits at 25 µM | G protein-activated inward rectifier potassium channel 2 (Homo sapiens), P48051 | HEK293-GIRK2 thallium flux, Thallos fluorescence | hit rate 0.05% among 63,000;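 active means among the strongest 0.2% of first-round signals and kept after retests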;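 further: first round at about 10 µM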
Target sequence (P48051 whole entry, looked up): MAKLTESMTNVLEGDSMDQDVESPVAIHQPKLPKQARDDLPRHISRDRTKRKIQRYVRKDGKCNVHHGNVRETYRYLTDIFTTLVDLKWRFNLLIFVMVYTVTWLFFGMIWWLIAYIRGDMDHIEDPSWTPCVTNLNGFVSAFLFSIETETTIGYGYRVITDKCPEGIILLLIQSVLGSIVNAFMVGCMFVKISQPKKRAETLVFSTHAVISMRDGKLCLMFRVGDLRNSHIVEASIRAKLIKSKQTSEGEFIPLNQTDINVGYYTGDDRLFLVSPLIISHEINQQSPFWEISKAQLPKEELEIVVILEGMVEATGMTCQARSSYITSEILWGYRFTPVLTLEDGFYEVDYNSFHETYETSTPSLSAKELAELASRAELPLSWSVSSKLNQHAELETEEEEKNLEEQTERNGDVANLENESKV
Calls only; i = inactive.

GIRK2 activ	compound
i	COC(=O)COc1ccc2c(c1)O/C(=C\c1ccccc1Cl)C2=O
i	CC1=NN(CCNc2ccccc2Cl)c2nc3c(c(=O)n(C)c(=O)n3C)n2C1C (configuration not stated)
i	CCn1c(=O)c(C(=O)NCc2ccccc2)cc2cccnc21
i	Cn1c(=O)c2cc(C(=O)NCc3cccnc3)n(Cc3ccco3)c2n(C)c1=O
i	CCOc1ccc(NC(=O)c2ccc([N+](=O)[O-])s2)c([N+](=O)[O-])c1
i	N#Cc1cnc2ccc(F)cc2c1N1CCC(C(=O)Nc2ccc(Cl)cc2)CC1
i	COc1ccccc1OCC(=O)NCc1cc(-c2cccs2)n(C2CCCC2)n1
i	C=C1C[C@@]23CC[C@@H]4[C@](C)(C(=O)O)CCC[C@@]4(C)C2=CC[C@H]1C3
i	CS(=O)(=O)N1CCC(C(=O)N2CCN(Cc3nc4ccccc4[nH]3)CC2)CC1
i	COc1ccc(CC(=O)NC2CCCC(OC(=O)Nc3ccc(F)cc3)C2)cc1OC (configuration not stated)
i	CCCOc1ccc(-c2nc(C#N)c(N3CCN(C(=O)c4cccc(C)c4)CC3)o2)cc1
i	CC(C)N(C(=O)Cn1nc(-c2ccccc2)c2sc(N3CCOCC3)nc2c1=O)c1ccccc1
i	COc1cccc2c(Nc3ccc(F)c(C#N)c3)cc(C(=O)N3CCSCC3)nc12
i	COc1ccc(Cn2c(=O)c3sccc3n(Cc3nc(-c4cccc(OC)c4)no3)c2=O)cc1
i	CCOc1ccc(-c2ccc(=O)n(Cc3nc(-c4ccc(OCC)cc4)no3)n2)cc1
i	COCCNC(=O)Nc1nc2ccc3nc(SC)sc3c2s1
i	COc1ccc(C2(CNC(=O)c3ccc(F)cc3Cl)CCOCC2)cc1
i	NC(=O)C1CCN(CCOc2ccc(-c3[nH]ncc3-c3ccc(Br)cc3)c(O)c2)CC1
i	COc1ccc(-c2nn3c(c2C)NC(=O)C3CC(=O)Nc2cccc(C(F)(F)F)c2)cc1 (configuration not stated)
i	O=C(Nc1ccc(C(F)(F)F)cc1)c1cn(CC(O)c2ccccc2)nn1 (configuration not stated)
i	Cc1nc(-c2cccs2)sc1CNC(=O)Cn1cnnn1
i	C=CCNC(=O)NCc1nc(COc2ccc(OC)cc2)no1
i	O=C(CCCn1cnc(-c2ccccc2)cc1=O)NCC(F)(F)F
i	Cc1cc(C)cc(OCCNS(=O)(=O)c2ccc(NC(=O)C(C)C)cc2)c1
i	CCC(O)C(O)C/C=C/C/C=C\CCCCCCCC(=O)O (configuration not stated)
i	CC(O)CN1CCN(CC(=O)N2CCC(Cc3ccccc3)CC2)CC1 (configuration not stated)
i	O=C(Nc1cccc(C(F)(F)F)c1)N1CCN(c2cc(-n3ccnc3)ncn2)CC1
i	O=C(Nc1nc2c(s1)CN(S(=O)(=O)c1ccc3c(c1)OCCO3)CC2)c1ccoc1
i	COc1ccc(-c2nc3c4cnn(-c5ccccc5Cl)c4ncn3n2)cc1OC
i	Cc1ccc(-n2ncc3c(=O)[nH]c(-n4nc(C)cc4NC(=O)c4cc5ccccc5o4)nc32)cc1
i	O=S(=O)(c1cccc(Cl)c1Cl)N1CCN(c2cc(N3CCCC3)ncn2)CC1
i	Cc1cn2c3c(=O)n(C)c(=O)n(C)c3nc2n1CCCN1CCC(Cc2ccccc2)CC1
i	O=c1cc(-c2cc3ccccc3o2)c2cc3c(cc2o1)OCO3
i	COc1ccc(CC(=O)Nc2cc(-c3cccs3)nn2-c2nc(C(C)C)cc(=O)[nH]2)cc1
i	CCOC(=O)N1CCN(CC(O)COc2c(F)cc(Br)cc2F)CC1 (configuration not stated)
i	Cc1ccc(N2CCn3c2nc2c3c(=O)n(CC(=O)C(C)(C)C)c(=O)n2C)cc1Cl
i	COc1ccc(CNc2ncnc3[nH]ncc23)cc1OC
i	CNCCC(Oc1ccc(C(F)(F)F)cc1)c1ccccc1 (configuration not stated)
i	CC1CCc2c(sc(NC(=O)C(C)C)c2-c2nc3ccccc3s2)C1 (configuration not stated)
i	Cc1cc(N2CCOCC2)n2nc(C(F)(F)F)c(-c3ccccc3Cl)c2n1
i	NC(=O)c1ccccc1OCC#CCNC(=O)c1ccc2nsnc2c1
i	O=C(NCC1CCN(c2cnccn2)CC1)C1(c2cccs2)CCCC1
i	COc1cccc(-c2nc(Cn3ccn4nc(-c5ccc(C)c(C)c5)cc4c3=O)c(C)o2)c1OC
i	O=C(Cn1cc(S(=O)(=O)c2ccc(F)cc2)c(=O)c2cc(F)ccc21)Nc1ccccc1
i	CCc1ccc(NC(=O)NCCNc2cc(-n3cccc3)nc(C)n2)cc1
i	CC(Oc1ccc(Cl)cc1Cl)C(=O)N1CCN(c2ccc3nncn3n2)CC1 (configuration not stated)
i	CC1CCCN(c2ncc([N+](=O)[O-])c(N)n2)C1 (configuration not stated)
i	CCOc1ccc(NC(=O)Cn2nc3c(Sc4cccc(F)c4)nccn3c2=O)cc1
i	Cc1ccc(C)c(S(=O)(=O)NCc2ccc(C(=O)Nc3ccc(F)cc3)cc2)c1
i	CN(C)C(CNC(=O)/C=C/c1ccc2c(c1)OCO2)c1cn(C)c2ccccc12 (configuration not stated)
i	CCOc1ccc(NC(=O)c2cc(=O)c(OC)c[nH]2)cc1
i	COc1ccc(OCc2noc(CNC(=O)c3ccco3)n2)cc1
i	COc1cccc2c1C(=O)c1ccc3c(c1C2=O)C(=O)CC(C)(O)C3 (configuration not stated)
i	Cc1ccc(-n2cc(C(=O)OCC(=O)OC(C)(C)C)c3ccccc3c2=O)cc1
i	Cc1ccc(-n2ncc3c(C(C)C)nnc(SCC(=O)NCc4ccco4)c32)cc1C
i	CC(C)CNc1oc(-c2ccc(S(=O)(=O)N3CCOCC3)cc2)nc1C#N

Retrieved by structure from the list above, 5 records:
GIRK2 activ	compound
i	O=C(Nc1ccc(C(F)(F)F)cc1)c1cn(CC(O)c2ccccc2)nn1 (configuration not stated)
i	CCOc1ccc(NC(=O)Cn2nc3c(Sc4cccc(F)c4)nccn3c2=O)cc1
i	NC(=O)c1ccccc1OCC#CCNC(=O)c1ccc2nsnc2c1
i	COc1ccc(CC(=O)Nc2cc(-c3cccs3)nn2-c2nc(C(C)C)cc(=O)[nH]2)cc1
i	O=S(=O)(c1cccc(Cl)c1Cl)N1CCN(c2cc(N3CCCC3)ncn2)CC1

Next compounds.
GIRK2 activ	compound
i	CCOC(=O)CNC(=O)C1CN(C(C)=O)C1
i	CCn1cc(C(=O)Nc2nc3ccc(F)cc3s2)c(=O)c2cc(OC)ccc21
i	CCC(C)C(=O)OC1CC(C)C=C2C=CC(C)C(CCC(O)CC(O)CC(=O)O)C21 (configuration not stated)
i	CSc1ccc(CNC(=O)Cn2nc3c(N4CCN(c5ccccc5)CC4)nccn3c2=O)cc1
i	CC1Oc2ccccc2CN(CCc2cccs2)C1=O (configuration not stated)
i	CS(=O)(=O)Nc1cccc(NC(=O)c2cc(-c3cccs3)[nH]n2)c1
i	COC(=O)Cc1cn(C(=O)c2ccc(Cl)cc2)c2ccc(OC)cc12
i	O=S(=O)(CCOc1ccccc1)Nc1cccc(Br)c1
i	CCOc1cc(NC(=O)c2cncc(Br)c2)ncn1
i	N#Cc1ccc(COCC2CCN(Cc3ccccc3Cl)CC2)cc1
i	CCS(=O)(=O)N1CCCc2cc(NS(=O)(=O)c3cc(OC)ccc3OC)ccc21
i	CCCNC(=O)C1=Cc2cc(Br)ccc2OC=C1
i	C#CCn1c(=NC(=O)CSC(C)=O)sc2cc(Br)ccc21
i	COc1ccc(C(=O)Nc2ccc(OC)c(N3CCCC3=O)c2)cc1
i	COc1ccccc1NC(=O)N(Cc1ccoc1)Cc1cccs1
i	Cn1cc(C(=O)NCC(Cc2cccc(F)c2)N2CCCCC2=O)nn1 (configuration not stated)
i	CC(Oc1ccccc1)C(=O)NCCC(O)c1ccc2c(c1)OCO2 (configuration not stated)
i	COCCNC(=O)c1nnn(-c2ccc(NC(=O)c3c(F)cccc3F)cc2)n1
i	COc1ccc(S(=O)(=O)Nc2ccc(-c3csc4nc(C)cc(=O)n34)cc2)cc1F
i	O=C(Cc1noc2ccccc12)NCCn1cnc(-c2ccccc2)cc1=O
i	Cn1nc(-c2ccc(F)cc2)cc1C(=O)NCC1CCN(C(=O)Oc2ccccc2)CC1
i	O=S(=O)(c1ccc(F)cc1)n1nc2ccccc2n1
i	COc1ccc(CCC(=O)N2CCN(c3ccc4nnc(C5CC5)n4n3)CC2)cc1
i	O=C(NCc1ccccn1)c1ccc(CNS(=O)(=O)c2cccc(Cl)c2)cc1

Reformatted with each value named: four of the compounds above.
COc1ccc(S(=O)(=O)Nc2ccc(-c3csc4nc(C)cc(=O)n34)cc2)cc1F
- GIRK2 activ: i
O=C(Cc1noc2ccccc12)NCCn1cnc(-c2ccccc2)cc1=O
- GIRK2 activ: i
Cn1nc(-c2ccc(F)cc2)cc1C(=O)NCC1CCN(C(=O)Oc2ccccc2)CC1
- GIRK2 activ: i
O=S(=O)(c1ccc(F)cc1)n1nc2ccccc2n1
- GIRK2 activ: i

(continued)
GIRK2 activ	compound
i	Cc1nc(-c2cccs2)sc1CNC(=O)CC1CSc2nc(C)c(C)c(=O)n21 (configuration not stated)
i	CCc1ccccc1NC(=O)COc1cc(C)nc(N2CCCC(C)C2)n1 (configuration not stated)
i	Cc1nc(C)n(CC(C)C(=O)Nc2ccc(Br)cc2)n1 (configuration not stated)
i	CC(O)Cn1c(NCCN(C)C)nc2c1c(=O)[nH]c(=O)n2C (configuration not stated)
i	COC(=O)c1c(NCCc2c[nH]c3ccccc23)c2ccccc2[nH]c1=O
i	O=C(NCCOc1ccc2nnc(-c3ccc(F)cc3)n2n1)c1cc(-c2ccco2)[nH]n1
i	Cc1cc(C)nc(Nc2nc(CC(=O)NCc3ccc4c(c3)OCO4)cs2)n1
i	Cc1csc(SCC2CCN(C(=O)c3nc4ccccc4s3)CC2)n1
i	Nc1c(-c2ccccn2)nsc1C(=O)NCCCN1CCOCC1
i	Cc1ccc(N2CCN(C(=O)CC3(CC4=NS(=O)(=O)c5ccccc5N4)CCCC3)CC2)c(C)c1
i	CCCn1c(C(=O)NCCCn2ccnc2)cc2c(=O)n(C)c(=O)n(C)c21
i	N#Cc1nc(-c2ccc(S(=O)(=O)N3CCCCC3)cc2)oc1N1CCc2ccccc2C1
i	O=C(NNC(=O)c1cccn(Cc2cccc(F)c2)c1=O)NC1CCCCC1
i	COCCCn1c(C(=O)NCc2ccco2)cc2c(=O)n3ccccc3nc21
i	COCCn1c(CO)nc2ccccc21
i	COc1cc(/C=C2\Oc3cc(OC(=O)C4CC4)cc(C)c3C2=O)cc(OC)c1OC
i	Cc1nnc(SCC(=O)Nc2cccc(Cl)c2)c2c1cnn2-c1ccc(F)cc1
i	Cc1cc(NC(=O)C(=O)NCCN2CCOCC2)c2ccccc2n1
i	Cc1cn2c3c(=O)n(Cc4ccc(Cl)cc4)c(=O)n(C)c3nc2n1-c1ccc(S(N)(=O)=O)cc1
i	O=C(NCC#CCN1CCCCC1)c1ccccc1C(=O)c1ccccc1
i	CCOC(=O)CCn1c(=O)c2c(nc3n(-c4cc(C)ccc4OC)c(C)cn23)n(C)c1=O
i	NC(=O)c1c(NC(=O)CCCSc2ccc(Cl)cc2)sc2c1CCC2
i	CCOC(=O)c1c(N)n(CCNC(=O)c2ccccc2F)c2nc3ccccc3nc12
i	CSc1ccc(-c2noc(C3CCCN(S(=O)(=O)c4cccs4)C3)n2)cc1 (configuration not stated)
i	CN(c1ccsc1C(=O)NCc1ccccc1C(F)(F)F)S(=O)(=O)c1ccccc1
i	CC(=O)NC1=NN(C(C)=O)C2(S1)C(=O)N(CCOc1ccccc1)c1c(C)cc(C)cc12 (configuration not stated)
i	COc1cccc(C(=O)NCCn2ncccc2=O)c1OC
i	CCOC(=O)N1CCN(C(=O)Cc2c(C)nc(SCc3ccccc3F)[nH]c2=O)CC1
i	CCCN1C(=O)CCc2cc(NC(=O)Cc3ccc(OC)c(OC)c3)ccc21
i	Cn1nc(C2CCN(C(=O)c3cc(-c4ccccc4)on3)CC2)n(-c2ccccc2)c1=O
i	COc1cc(C)c(C)cc1S(=O)(=O)NCCN1CCN(c2ccc(Cl)cc2)CC1
i	O=C(Cc1cc(=O)[nH]c(SCc2ccc(F)cc2)n1)Nc1ccc(Cl)c(Cl)c1
i	CN(C)CCNc1oc(-c2ccc(COc3ccc(Cl)cc3)o2)nc1C#N
i	CS(=O)(=O)N1CCN=C1SCc1ccc(C(F)(F)F)cc1
i	CCOCCn1c(=O)c2c(nc3n(-c4ccccc4CC)c(C)c(C)n23)n(C)c1=O
i	O=C(Nc1nc(C(=O)NCc2cccs2)co1)c1ccsc1
i	C=CC1(C)CC(OC(=O)C(=C)C(O)CO)C(C(=C)C(=O)OC)C(O)C1C(=C)CO (configuration not stated)
i	CCN(CC)C(=O)c1cnc2nc(C)ccc2c1Nc1cc(Cl)c(OC)cc1OC
i	COc1ccc(Nc2c(C(=O)N3CCCCCC3)cnc3nc(C)ccc23)cc1OC
i	CCOCCn1c(=O)c2c(nc3n(-c4cc(C)ccc4C)c(C)cn23)n(C)c1=O
i	Cc1ccc(Cn2cc(-c3noc(C(=O)Nc4ccc(F)c(Cl)c4)n3)nn2)cc1
i	C=CCOC(=O)C1=C(C)NC(=O)NC1c1ccc(OC)c(OC)c1 (configuration not stated)
i	CSCC(C)(O)CNC(=O)C(=O)NCc1ccc(F)cc1 (configuration not stated)
i	O=C(c1cc2ccccc2o1)N(CCn1cccn1)c1nc2c(Cl)cccc2s1
i	Cc1nc2ccc(NC(=O)Nc3ccccc3F)cc2c(=O)n1-c1ccccc1
i	COC(=O)c1ccc(Cn2cccc(S(=O)(=O)N3CCCCCC3)c2=O)o1
i	COCCOC(=O)c1c(C)oc2ccc(OC(=O)c3ccccc3F)cc12

Only part of the results is shown; count on the stated rates, not on these rows.
